VDR inhibitor: inhibitors of human vitamin D receptor; VDR-SRC2-3 peptide fluorescence polarization, 2 h; Potency, µM, for the others: max response, negative = inhibition, usual class: inhibitors; 400,000 compounds, 0.93% hits; active = well fitted inhibition curve with a large enough effect; inconclusive = small, poorly fitted or top-dose-only effect, or another doubt; inactive = no such curve, though single readings can be large or run the other way; note: series mostly up to about 120 µM
Target sequence (P11473 whole entry, looked up): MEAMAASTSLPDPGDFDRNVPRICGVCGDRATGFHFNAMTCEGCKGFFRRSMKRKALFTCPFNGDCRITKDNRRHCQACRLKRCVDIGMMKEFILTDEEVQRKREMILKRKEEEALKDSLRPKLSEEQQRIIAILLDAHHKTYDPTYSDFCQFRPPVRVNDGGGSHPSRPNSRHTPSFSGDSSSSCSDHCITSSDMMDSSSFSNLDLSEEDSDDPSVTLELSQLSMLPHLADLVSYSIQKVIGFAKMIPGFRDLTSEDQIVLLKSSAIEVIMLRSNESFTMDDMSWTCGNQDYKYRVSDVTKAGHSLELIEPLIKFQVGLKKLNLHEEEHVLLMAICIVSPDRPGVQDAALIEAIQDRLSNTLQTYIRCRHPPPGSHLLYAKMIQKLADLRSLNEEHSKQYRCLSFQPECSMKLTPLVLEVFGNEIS
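After 23 nl compound addition and a short centrifugation, plates sat for 2 hours at ambient temperature; polarization of fluorescence then indicated loss of VDR binding to peptide SRC2-3.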
Starred values were filed as active, the others as inactive; ? = inconclusive; & = joins results of further samples. % is set by controls: 0 for no effect and ±100 for the full control effect; potency is the fitted concentration of half-maximal effect. An excerpt; rates above refer to the full screens.

VDR inhibitor | Molecule
-4% | CN(C)c1ccc(C(=O)Nc2nnc(C3=COCCO3)o2)cc1
? | OCCC1CN(Cc2cc3ccccc3o2)CCN1Cc1ccc(F)cc1 (stereo not drawn)
-17% | N#C/C(=C\c1ccc(-c2ccc(S(=O)(=O)N3CCOCC3)cc2)o1)C(=O)NC1CC1
19% | CC(=O)NCCN1C(=O)S/C(=C\c2cccs2)C1=O
-1% | CCN(CC)C(=O)CN(c1cc(Cl)ccc1OC)S(C)(=O)=O
-11% | N/C(=N\OC(=O)c1ccc(Cl)cc1Cl)c1ccccn1
3% | O=C(Cn1cnc2c(oc3ccccc32)c1=O)Nc1ccc(OC(F)(F)F)cc1
-1% | COc1ccccc1NC(=O)NCc1nc(-c2ccc(C(F)(F)F)cc2)no1
-2% | C=CCn1c(=O)c2ccc(C(=O)NCc3ccccc3)cc2n(Cc2ccc(Cl)cc2)c1=O
? | CNc1ccc(Br)cc(C(=O)/C=C/c2ccc(OC)cc2)c1=O
-22% | CSc1ncc(C(=O)Nc2cccc(Cl)c2)c(C)n1
-24% | Cn1ccnc1SCC(=O)Nc1ccc(Br)cc1C(F)(F)F
-4% | COc1ccc2nc(/N=C/c3cccc(OC)c3O)sc2c1
-1% | C[C@@H](CN=[N+]=[N-])CN1CC[C@H](NC(=O)OCc2ccccc2)CCC1=O
-7% | CC(C)(C)c1ccccc1NC(=S)NC1CCCC1
7% | COc1ccc(CNC(=O)c2cccc(NC(=O)CC3SC(N4CCCCC4)=NC3=O)c2)cc1 (stereo not drawn)
0% | COC(=O)c1ccc(C2c3[nH]c4ccccc4c3C[C@H]3C(=O)N(C4CCN(Cc5ccccc5)CC4)CC(=O)N23)cc1 (stereo partly drawn)
-15% | CCOc1ccc(CC(=O)NC2CCN(Cc3ccccc3)CC2)cc1
8% | CCOC(=O)c1ccccc1N/C=C/C(=O)c1cccs1
13% | CCOC(=O)c1ccc2oc(=O)n(Cc3ccccc3)c2c1
8% | Cc1ccc2c(=O)cc(C(=O)Nc3ccc(S(=O)(=O)N(C)Cc4ccccc4)cc3)oc2c1C
-10% | Cc1ccsc1/C=N/NC(=O)CC(=O)NCC(C)C
-9% | CC(C)Oc1ccc(CSC(=N)N)cc1
0% | O=C(Cn1ncc(Cl)c(Cl)c1=O)N1CCc2ccccc21
4% | Cc1nnc(NC(=O)c2ccc(Br)cc2)s1
6% | Cc1ccnc(NC(=O)c2ccc(S(=O)(=O)NCc3ccco3)cc2)c1
-3% | CCc1ccccc1NC(=O)CCc1nc(-c2cccs2)no1
5% | Cc1ccnn1CC(=O)N/N=C/c1ccco1
-5% | O=C(COC(=O)c1ccc2ccccc2n1)c1ccc(F)cc1
5% | CCOc1ccccc1CN1CCN(CC2=Cc3cc(OC)ccc3OC2)CC1CCO (stereo not drawn)

Filtered by structure, the entries above containing an aryl methoxy group.
VDR inhibitor | Molecule
-1% | CCN(CC)C(=O)CN(c1cc(Cl)ccc1OC)S(C)(=O)=O
-1% | COc1ccccc1NC(=O)NCc1nc(-c2ccc(C(F)(F)F)cc2)no1
? | CNc1ccc(Br)cc(C(=O)/C=C/c2ccc(OC)cc2)c1=O
-4% | COc1ccc2nc(/N=C/c3cccc(OC)c3O)sc2c1
7% | COc1ccc(CNC(=O)c2cccc(NC(=O)CC3SC(N4CCCCC4)=NC3=O)c2)cc1 (stereo not drawn)
5% | CCOc1ccccc1CN1CCN(CC2=Cc3cc(OC)ccc3OC2)CC1CCO (stereo not drawn)

Going on with the list.
VDR inhibitor | Molecule
10% | O=C(CSc1nnc2ccc3ccccc3n12)c1ccc(F)cc1
21% | Cc1cccc(N2CCN(Cc3nc(CC4CC4)no3)CC2)n1
-10% | O=C(Nc1cccc(S(=O)(=O)NCc2ccco2)c1)c1cc(-c2ccccc2)nc2ccccc12
-2% | Cc1nn2c(CN(C(=O)c3ccco3)c3ccccc3)nnc2c2ccccc12
7% | Cc1ccc(Cn2c(C(C)NC(=O)c3ccccc3)nc3ccccc32)cc1 (stereo not drawn)
-25% | Cc1cc(C)c2c(=O)[nH]c(SCC(=O)Nc3ccc(N(C)C)cc3)nc2n1
1% | CCc1ccc(C2=C/C(=C/c3cccnc3)C(=O)O2)cc1
-4% | CCCOc1ccc2[nH]cc(C(=O)O)c(=O)c2c1
3% | N#CNc1nc(O)cc(=O)[nH]1
? | CC1=NN(c2ccc(S(=O)(=O)O)cc2Cl)C(=O)C1
-9% | CCOC(=O)C1CCCN(C(=O)C2CCC(CNS(=O)(=O)c3ccc(NC(C)=O)cc3)CC2)C1 (stereo not drawn)
0% | CN(C)S(=O)(=O)c1cccc(CSc2cccc[n+]2[O-])c1
-9% | CCOc1ccc(COC(=O)C2CC(=O)N(CCc3ccccc3)C2)cc1OC (stereo not drawn)
2% | CCOC(=O)CC1C(=O)NCCN1c1nc2c(C)cccn2c(=O)c1/C=C1\SC(=S)N(C(C)CC)C1=O (stereo not drawn)
-25% | COc1ccc(-c2cc(C(F)(F)F)nc(SCC(=O)NCc3ccc(F)cc3)n2)cc1
-5% | N#CC1C(C#N)N2CCCN2C1c1ccc(Br)cc1 (stereo not drawn)
-3% | S=C(Nc1ccccc1Cl)N1CCC(c2ccccc2)C1 (stereo not drawn)
-4% | Cc1ccccc1CN1C(=O)c2ccccc2S(=O)c2ccc(C(=O)N3CCOCC3)cc21 (stereo not drawn)
6% | Nc1ncc(S(=O)(=O)c2ccc(Cl)cc2)c(N)n1
-17% | COC(=O)c1scc(S(=O)(=O)C(C)C)c1N/N=C(\C#N)C(=O)c1ccc(Cl)cc1
-2% | O=C(NCCS(=O)(=O)c1ccc(Br)cc1)c1ccccc1Cl
? | O=C(c1noc2c1CCCC2)N1CCC(CO)(Cc2ccccc2Cl)CC1
-8% | Cc1ccc(CCNC(=O)c2cn(C)c3ccc(S(=O)(=O)N4CCCCC4)cc3c2=O)cc1
79µM* | O=C(O)COc1cccc(/C=C2/SC(=S)N(Cc3ccccc3)C2=O)c1
1% | O=S(=O)(c1ccccc1)C1(S(=O)(=O)c2ccccc2)CCCC1
17% | O=C(CCC(=O)Nc1ccc(F)cc1)N/N=C/c1ccc(O)cc1O
-9% | CCOC(=O)c1c(C)[nH]c(C(=O)OCC(=O)Nc2ccc(Cl)cn2)c1C
-2% | CCCCn1c(SCC(=O)Nc2nnc(CC)s2)nc2ccccc2c1=O
-1% | O=C(COC(=O)CCCN1C(=O)c2cccc3cccc(c23)C1=O)Nc1cccc(Br)c1
8% | COc1ccc(CN2CCOCC2)c(C)c1C

(further entries)
VDR inhibitor | Molecule
23% | COc1cc(OC)c(NS(=O)(=O)c2cc3c(cc2C)NC(=O)CO3)cc1Cl
-8% | CCC(=O)Oc1ccc2c(c1)CCC1C2CC[C@]2(C)C(OC(=O)CC)CCC12 (stereo partly drawn)
9% | O=C(CN1C(=O)NC2(CCCC2)C1=O)N1CCN(c2ccccc2Cl)CC1
-17% | CC(C)Cc1nnc(NC(=O)CCC(=O)NC2CCCc3ccccc32)s1 (stereo not drawn)
13% | Cc1oc2ccc(O)c(CN3CCOCC3)c2c1C(=O)Nc1ccccc1
-12% | COc1ccc(N2CCN(C(CNC(=O)C(C)(C)C)c3ccco3)CC2)cc1 (stereo not drawn)
-2% | CC1=NN(C(=O)Cn2ccc([N+](=O)[O-])n2)C(O)(C(F)(F)F)C1 (stereo not drawn)
5% | CCCn1ccc2c(OCC(=O)Nc3cc(C)ccc3C)cccc2c1=O
8% | O=C(OCCN1C(=O)c2ccccc2C1=O)c1ccco1
10% | Cc1ccc(Cl)cc1-n1ncc2c(NCCCn3ccnc3)ncnc21
89µM* | COc1ccc(-c2nc(S(=O)(=O)c3ccc(C)cc3)c(N3CCCCC3)o2)cc1
0% | Cc1cc([N+](=O)[O-])cc(C)c1OCC(=O)N/N=C/c1ccc(OC(=O)c2ccccc2)cc1
-16% | NC(=S)C(c1ccccc1)c1ncc(C(F)(F)F)cc1Cl (stereo not drawn)
2% | CCC(C)NC(=O)c1cn(CC)c2cc(N3CCN(C(=O)c4ccco4)CC3)c(F)cc2c1=O (stereo not drawn)
0% | CCOc1ccc(CN2CCN(Cc3cc4ccccc4[nH]3)CC2CCO)cc1 (stereo not drawn)
12% | CCCN1CCN(C(=O)c2ccc(CS(=O)c3ccc(F)cc3)o2)CC1 (stereo not drawn)
-2% | Cc1nc2ccccc2n1CC(=O)OCC(=O)NC1CC1
6% | CC(C)C(NC(=O)c1ccc(C(C)(C)C)cc1)C(=O)N1CCC(C(N)=O)CC1 (stereo not drawn)
? | CN1CCC(=NNC(=O)c2cn(-c3ccccc3)nc2-c2ccccc2)CC1
-14% | CC1C(=O)Nc2ccc(S(=O)(=O)NCCc3ccc(Cl)cc3)cc2NC1=O (stereo not drawn)
-11% | Nc1nccnc1C(=O)OCC(=O)Nc1ccc2[nH]c(=O)[nH]c2c1
-8% | O=C(N[C@@H](Cc1c[nH]c2ccccc12)C(=O)O)OCC1c2ccccc2-c2ccccc21
20% | COC(=O)c1ccc(C(=O)Nc2cc(Cl)ccc2Cl)cc1NC(=O)c1ccccc1C
0% | Cn1cc(CN2CCCC(C(=O)Nc3cccc(-n4cccn4)c3)C2)cn1 (stereo not drawn)
1% | O=C(CN1C(=O)NC(c2ccccc2)(c2ccccc2)C1=O)NC1CCS(=O)(=O)C1 (stereo not drawn)
-3% | Cc1ccc2nc(NC(=O)CCNS(=O)(=O)c3ccc(Br)s3)sc2c1
14% | CCN(CC)C(=O)C(Oc1ccc(S(=O)(=O)N2CCCC2)cc1[N+](=O)[O-])c1ccccc1 (stereo not drawn)
-2% | O=C(/C=C/c1cccc(F)c1)NCc1ccc2c(c1)OCO2
-12% | CCc1cc(CC)c(/C=N/NC(N)=O)c(CC)c1
-9% | COc1ccc(NC(=O)[C@@H]2CCCN2S(=O)(=O)c2ccccc2F)cc1S(=O)(=O)N1CCCCC1

Three structures from above, arranged by number of heavy atoms, high to low:
VDR inhibitor | Molecule
-8% | O=C(N[C@@H](Cc1c[nH]c2ccccc12)C(=O)O)OCC1c2ccccc2-c2ccccc21
20% | COC(=O)c1ccc(C(=O)Nc2cc(Cl)ccc2Cl)cc1NC(=O)c1ccccc1C
10% | Cc1ccc(Cl)cc1-n1ncc2c(NCCCn3ccnc3)ncnc21

Back to the main list; the four compounds before the break are reprinted first.
VDR inhibitor | Molecule
14% | CCN(CC)C(=O)C(Oc1ccc(S(=O)(=O)N2CCCC2)cc1[N+](=O)[O-])c1ccccc1 (stereo not drawn)
-2% | O=C(/C=C/c1cccc(F)c1)NCc1ccc2c(c1)OCO2
-12% | CCc1cc(CC)c(/C=N/NC(N)=O)c(CC)c1
-9% | COc1ccc(NC(=O)[C@@H]2CCCN2S(=O)(=O)c2ccccc2F)cc1S(=O)(=O)N1CCCCC1
-7% | COc1ccc(-c2cn[nH]c2-c2ccc(OCc3ccccc3F)cc2O)cc1OC
2% | CC1(C)CC(=O)C(C2(O)C(=O)N(Cc3ccccc3)c3ccccc32)CO1 (stereo not drawn)
6% | CCOC(=O)c1[nH]c2c(c1Cc1ccccc1)C(=O)CC(c1ccc(OC)cc1)C2 (stereo not drawn)
-4% | Cc1cc(C)n(/N=C/c2ccccc2)c(=O)c1C#N
5% | CC(c1nnc(SCC(=O)N2CCc3ccccc32)n1-c1ccc(Cl)cc1)N(C)C (stereo not drawn)
-15% | CN(CC(=O)Nc1ccc(Cl)c(C(F)(F)F)c1)C(=O)CCN1C(=O)C2CCCCC2C1=O (stereo not drawn)
12% | CCCCc1nc2cc(C(=O)NCc3ccccn3)ccc2o1
-12% | Cc1ccc(NC(=O)COC(=O)C2CSC3(C)CCC(=O)N23)c(C)c1 (stereo not drawn)
? | Cc1c(C(=O)NN2CCCCC2)nn(-c2ccc(Cl)cc2Cl)c1-c1ccc(Cl)cc1
12% | Cc1ccc(-n2nc3c(c2NC(=O)c2ccccc2Br)CS(=O)C3)cc1 (stereo not drawn)
-2% | Cn1nc(C(F)(F)F)c2cc(C(=O)Nc3ccc(F)c(Cl)c3)sc21
-4% | COCCn1c(SCC(=O)Nc2ccc(N3CCOCC3)cc2)nc2ccccc21
-5% | Cc1cccc2sc(NC(=O)C3CCCO3)nc12 (stereo not drawn)
-9% | COC(=O)c1ccccc1NC(=O)c1ccccc1N(C)S(C)(=O)=O
-22% | O=C(O)C1CC(=O)N(c2ccc3c(c2)OCCO3)C1 (stereo not drawn)
14% | CCCNC(=O)c1nn2c(C(F)(F)F)cc(-c3ccccc3)nc2c1Cl
-5% | C#Cc1ccc([C@H]2C=C(C(=O)N3CCN(Cc4ccc5c(c4)OCO5)CC3)O[C@@H](OCc3ccc(CO)cc3)C2)cc1
-12% | Cc1ccc(Cl)cc1NC(=S)N(CCN(C)C)C(C)c1ccccn1 (stereo not drawn)
? | CCC(c1nnnn1Cc1ccco1)N1CCN(c2cc(Cl)ccc2C)CC1 (stereo not drawn)
-7% | CCOc1ccc(OCC)c(N=c2oc3c(C)ncc(CO)c3cc2C(N)=O)c1
7% | CCC1C(=O)C(CC)C(c2ccccc2)NC1c1ccccc1 (stereo not drawn)
10% | COC(=O)c1cc2nc(-c3ccccc3)cc(C(F)(F)F)n2n1
-2% | CCC(=O)Nc1ccccc1-c1nc2ccccc2n(C(C)C(=O)Nc2ccc(OC)cc2)c1=O (stereo not drawn)
-3% | O=C(OCn1cncn1)c1ccc(Cl)cc1Cl
-10%&14% | COc1ccc2[nH]c3c(C)c4cc[n+](C)cc4c(C)c3c2c1
-5% | CCOC(=O)C1CCCN(CCC(=O)Nc2ccc(C)cc2)C1 (stereo not drawn)
-1% | O=C(O)COc1ccc(OCCNC[C@H](O)COc2ccccc2)cc1

Assay outcomes from PubChem.
